CSC inhib = cancer stem cell inhibition; cancer stem cell-like cells viability, luminescence; inhibition, % at 7.5 µM; 1.1% of 300,000 active; AID 2717;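 active means mean at 75% or more and at least half the replicates too; tested in HMLE shEcad cells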;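 further: 0% = median of negative and 100% = median of positive control wells; the first replicate is given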
PABP polyA inh = PABP-poly(A) binding inhibition. P11940. inhibition, % at 35 µM. PABP-poly(A) RNA binding, fluorescence polarization. 1% of 290,000 active;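 active means 50% or more with normal probe brightness, or confirmed in later tests; about a fifth of its hits are not listed in these tables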;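 further: calls also rest on retests at 20 µM and on dose response follow-up; controls were probe without protein and protein plus probe with vehicle; some compounds called inactive have numbers as strong as hits; many hits fall short of the cut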
UUG fidelity = alters start codon recognition fidelity in yeast | S. cerevisiae UUG-firefly luciferase reporter, luminescence/redox ratio | activity score, % at 18.7 µM | 0.13% of 350,000 active;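 active means replicate mean at a twofold rise or more, about +100% in these data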;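 further: firefly luciferase made from a UUG start codon reports start codon fidelity; reporter light over untreated wells divided by growth signal over untreated wells; some hits fall short of that in this replicate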
Rce1 inhib = yeast Ras-converting enzyme inhibition; Q03530; yeast membranes, quenched prenylated peptide cleavage fluorescence; calls only; 0.27% of 290,000 active; AID 2563;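 active means fall in fluorescence gain of 50% or more versus controls, with final raw signal at or below 3038400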;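 further: plate controls were neutral control wells for no effect and wells lacking membranes for full effect; tested at 10 µM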
Target sequence (Q03530 whole entry, looked up): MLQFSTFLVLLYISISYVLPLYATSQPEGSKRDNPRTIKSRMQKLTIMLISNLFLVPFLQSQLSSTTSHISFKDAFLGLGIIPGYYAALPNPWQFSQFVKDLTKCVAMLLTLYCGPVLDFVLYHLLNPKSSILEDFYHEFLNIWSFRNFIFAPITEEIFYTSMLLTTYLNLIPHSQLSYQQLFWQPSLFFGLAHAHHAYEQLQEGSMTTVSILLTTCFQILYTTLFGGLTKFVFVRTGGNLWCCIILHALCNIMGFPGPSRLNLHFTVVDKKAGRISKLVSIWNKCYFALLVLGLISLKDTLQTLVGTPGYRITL
Env fusion inh = HIV envelope-mediated fusion inhibition. HeLa-JRFL Env/CEM21 cell fusion, luciferase. inhibition, % at 12.3 µM. 1.1% of 360,000 active. AID 651610;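 active means mean replicate inhibition score of at least 50 and every replicate individually at or above 50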;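 further: 0% = plate neutral controls and 100% = maraviroc near 300 nM; one replicate is shown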
MT1-MMP act inh = inhibitors of human MT1-MMP activation. P50281. HT1080 RFP-PRO-GFP cells, GFP/RFP ratio fluorescence, overnight; percent of plate control window, DMSO zero. GFP/RFP ratio change, % at 20 µM. 0.061% of 360,000 active. AID 651647;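 active means GFP/RFP ratio change of at least 30% with cell ATP level not reduced by more than half and red fluorescence within 50% of control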; further: strong numbers were not always called active
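Compound: 20 µM single dose, 1% DMSO / System: HT1080 RFP-PRO-GFP cells / Controls: DMSO and RFP-L50D-GFP cell wells / Read-out basis: GFP/RFP fluorescence ratio / Schedule: overnight compound exposure at 37 °C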
eIF4H inh = inhibitors of RNA binding by human eIF4H; Q15056; eIF4H fluorescence polarization binding assay; inhibition, % at 35 µM; 0.94% of 290,000 active; AID 2012;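 active means 50% or more with normal probe brightness, or confirmed in later tests; about a fifth of its hits are not listed in these tables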;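 further: calls also rest on retests at 20 µM and on dose response follow-up; 0% = protein and probe with vehicle and 100% = probe without protein; strong numbers were not always called active; many hits fall short of the cut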
eIF4H inh retest = recorded beside eIF4H inh, whose call it bears; inhibition, %; compound at 20 µM; confirmation average;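 mean of two retest wells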
PABP polyA inh retest = recorded beside PABP polyA inh, whose call it bears; inhibition, %; compound at 20 µM; confirmation repeats;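 mean of two retest wells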
MT1-MMP act inh RFP = further read-out of MT1-MMP act inh, marked with its call; RFP signal change, %; measured here: RFP expression control read;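 0 = vehicle wells; hits needed this value within 50% of zero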
Numbers without * were called inactive; i = inactive; . = not tested or not shown.

SMILES | CSC inhib | PABP polyA inh | UUG fidelity | Rce1 inhib | Env fusion inh | MT1-MMP act inh | MT1-MMP act inh RFP | eIF4H inh | others
O=C(c1cnccn1)N(Cc1ccco1)C1(C(=O)NC2CCCCC2)CCCCC1 | -16.2 | -5.4 | . | i | 36.2 | 0.8 | -1.1 | 8.9
CC(C(=O)NCc1ccccc1)N1CCN(c2ccc(F)cc2)CC1 (stereo unspecified) | -4.7 | -2.5 | -9.5 | i | 5.7 | -0.5 | 3.9 | -5.8
Cc1nn(Cc2ccccc2Cl)c(C)c1NC(=O)C1C2CCC(O2)C1C(=O)O (stereo unspecified) | . | -7.1 | -3.3 | i | . | 4.7 | 5.7 | -1.2
c1ccc(-c2noc(-c3ccno3)n2)nc1 | -5.9 | -1.9 | . | i | -0.9 | 7.3 | 3.6 | 3.4
O=C(c1ccccc1)c1nn(-c2ccc(Cl)cc2)c(=O)cc1C(F)(F)F | 107.8* | -1.8 | -7.0 | i | . | -4.3 | -4.7 | -0.1
COC(=O)[C@H]1Cc2cnoc2C[C@]1(C)C(=O)O | -5.3 | 4.3 | -19.5 | i | -10.2 | 2.3 | 4.1 | 6.8
Cc1ccc(NC(=O)CN2C(=O)NC3(CCc4ccccc43)C2=O)cc1Cl (stereo unspecified) | 17.3 | -6.1 | -5.2 | i | . | 4.7 | 3.9 | -7.1
CC(C)C[C@H](NC(=O)OC(C)(C)C)C(=O)N[C@@H](CO)[C@H](O)[C@@H]1C[C@@H]1C(=O)NC1CCCCC1 | . | 16.8 | 9.7 | i | -96.9 | 5.5 | 1.1 | -0.3
Cc1nnc2n1NC(c1ccc(Cl)cc1)C(C(=O)N1CCC(C)CC1)S2 (stereo unspecified) | -1.9 | -5.3 | -15.7 | i | . | 13.1 | 7.7 | -4.3
COC(=O)/C=C1\N/C(=N\c2nc(C)cc(C)n2)N(c2ccc(Cl)cc2)C1=O | -3.4 | -12.9 | -9.6 | i | 14.1 | -2.4 | -1.8 | -8.7
CCOCCCNC(=O)/C(C#N)=C/c1ccccc1F | -2.9 | -10.0 | -2.8 | i | -1.1 | 6.7 | 4.9 | 0.1
O=C(OCc1ccccc1)c1cnc(Cl)c(Cl)c1 | -1.8 | 1.7 | -15.9 | i | -7.6 | -1.0 | 0.7 | 5.9
COc1cccc(CN(C)C(=O)c2ccc(N3CCCC3)c([N+](=O)[O-])c2)c1 | 14.3 | 6.4 | 25.5 | i | 5.1 | -0.1 | -5.4 | -11.7
O=C(N=C1SC2CS(=O)(=O)CC2N1c1cccc(F)c1)C1CC1 (stereo unspecified) | -12.2 | -3.3 | -11.8 | i | 4.6 | 0.2 | 2.6 | -6.5
O=C(CN1C(=O)S/C(=C\c2ccc(O)cc2)C1=O)c1ccccc1 | -10.7 | -7.8 | . | i | -17.5 | 5.5 | -7.0 | -16.9
COC(=O)c1ccc(-c2csc(NC(=O)c3ccc(S(=O)(=O)N4CCc5ccccc5C4)cc3)n2)cc1 | . | 1.8 | -20.1 | i | 7.0 | 0.9 | -0.9 | -0.2
Cc1ccc(C(=O)N/N=C2\CCCc3ccccc32)c(C)c1 | 2.9 | 0.1 | . | i | -66.0 | 1.8 | -0.5 | 38.8
O=C(OCC(=O)c1ccc[nH]1)c1ccc([N+](=O)[O-])cc1 | 6.4 | . | -8.0 | . | . | -0.4 | -0.8 | .
O=C(Nc1ccc(N2CCOCC2)cc1)c1csc(COCCO)n1 | . | . | -24.0 | . | 1.3 | 3.6 | -0.6 | .
NC(=O)c1nc[nH]c1C(=O)Nc1cccc(C(F)(F)F)c1 | -39.4 | . | -14.8 | . | -19.4 | -4.7 | -1.2 | .
CC(=O)OCC(OC(C)=O)C(OC(C)=O)C(OC(C)=O)C(=O)Nc1ccc(C)cc1C (stereo unspecified) | -11.4 | -7.9 | 14.7 | i | -35.9 | -4.1 | -5.1 | 5.0
Cc1ccc(-c2noc(Cn3nc(C(=O)O)c4ccccc4c3=O)n2)cc1 | -4.8 | 4.5 | 0.6 | i | -9.9 | 2.7 | 4.9 | -6.2
O=C(NCc1nc2ccccc2[nH]1)c1cccs1 | -9.8 | 3.4 | -11.3 | i | -33.7 | 0.6 | 3.7 | 6.2
Cn1cc(S(=O)(=O)N2CCC(C(N)=O)CC2)c(=O)n(C)c1=O | -1.5 | 0.6 | -20.0 | i | -62.6 | 2.3 | 6.2 | -4.4
CCOC(=O)c1[nH]c2cc(OC)c(OC)cc2c1N | -0.5 | 9.9 | -23.4 | i | -49.8 | 8.0 | 4.3 | 4.8

Continued (3 carried over from the part before).
SMILES | CSC inhib | PABP polyA inh | UUG fidelity | Rce1 inhib | Env fusion inh | MT1-MMP act inh | MT1-MMP act inh RFP | eIF4H inh | others
O=C(NCc1nc2ccccc2[nH]1)c1cccs1 | -9.8 | 3.4 | -11.3 | i | -33.7 | 0.6 | 3.7 | 6.2
Cn1cc(S(=O)(=O)N2CCC(C(N)=O)CC2)c(=O)n(C)c1=O | -1.5 | 0.6 | -20.0 | i | -62.6 | 2.3 | 6.2 | -4.4
CCOC(=O)c1[nH]c2cc(OC)c(OC)cc2c1N | -0.5 | 9.9 | -23.4 | i | -49.8 | 8.0 | 4.3 | 4.8
Clc1ccc(CN2C3=NCCN3c3ccccc32)cc1 | -7.3 | -3.7 | -9.0 | i | . | 0.5 | 5.9 | -7.6
COCC(O)CNc1ccccc1 (stereo unspecified) | 4.4 | -4.6 | . | i | -4.0 | 0.9 | 4.0 | 8.1
Nc1nc(CN2CCN(c3ccccc3)CC2)nc(Nc2ccc(Cl)cc2)n1 | 16.9 | -8.6 | -1.8 | i | 16.2 | 2.3 | -13.5 | 3.4
O=C(NCCOc1cccnc1)c1ccc(OC2CCN(Cc3ccccn3)CC2)cc1 | -4.1 | -0.5 | -11.5 | i | . | -4.3 | -0.7 | -1.0
COc1cccc(-c2noc(CCCC(=O)NC3CCCC3)n2)c1 | . | -3.4 | -25.0 | i | -3.2 | -2.9 | -5.6 | 1.1
CCCOc1ccc(-c2c(C(=O)N/N=C/c3ccc(OC)cc3)nnn2-c2nonc2N)cc1 | 10.6 | -6.4 | . | i | -10.9 | 1.8 | 0.8 | -1.1
CCc1ccc(NC(=S)N2CCNC(=O)C2CC(=O)OC)cc1 (stereo unspecified) | -1.6 | 90.7* | . | i | 3.9 | -1.7 | 2.3 | 0.2 | eIF4H inh retest=45.3;PABP polyA inh retest=68.0*
CC(=O)c1c(C)[nH]c(C(=O)CN2C(=O)NC(C)(CCC(C)C)C2=O)c1C (stereo unspecified) | -11.4 | 2.9 | . | i | -19.8 | 2.0 | 6.1 | 8.5
CCCC(=O)NC(c1cccs1)c1cc([N+](=O)[O-])c2cccnc2c1O (stereo unspecified) | 105.7* | 21.1 | -23.1 | i | -2.9 | 10.8 | -4.7 | 13.4
Cc1cc(O)ccc1Nc1nc2ccccc2nc1Nc1ccc(O)cc1C | 19.7 | 75.4* | -9.7 | i | -124.3 | -32.0 | 1.1 | 23.8* | eIF4H inh retest=93.9*;PABP polyA inh retest=87.7*
COc1ccc(Cl)cc1NC(=O)CN1C(=O)CC(C)S(=O)(=O)c2ccccc21 (stereo unspecified) | -3.3 | 18.8 | -2.0 | i | 13.5 | 1.8 | -0.4 | -1.2
O=C(N=Nc1c(O)[nH]c2ccccc12)c1ccc2c(c1)OCO2 | 4.4 | 53.8* | . | i | -33.0 | -3.3 | -2.1 | 8.5* | eIF4H inh retest=88.0*;PABP polyA inh retest=53.0*
CCn1c(Cc2ccccc2)nnc1SCC(=O)OC(C)C | 2.8 | -6.9 | -5.4 | i | . | 4.8 | 5.7 | -1.2
O=C(NNC(=O)c1ccc(Cl)c(Cl)c1)c1cccnc1 | -2.6 | -6.6 | -12.6 | . | 3.8 | 0.7 | 5.6 | 0.0
CCCCCC(=O)O/N=C(\C)c1ccn(S(=O)(=O)c2ccccc2)c1 | -18.4 | 7.1 | -7.7 | i | -5.7 | -1.3 | -5.2 | 0.9
Cn1nccc1/C=C(/C#N)S(=O)(=O)c1ccccc1 | -5.1 | 23.6 | 8.9 | i | -6.1 | -10.9 | 7.0 | 17.8
Cn1c(SCC(=O)Nc2sccc2C#N)nnc1C1CC1 | -6.7 | . | 1.4 | . | 0.1 | -0.2 | 4.0 | .
CCCN1CCC(=O)N([C@H](CN=[N+]=[N-])Cc2ccccc2)CC1 | 4.0 | 6.7 | -14.9 | i | 6.4 | -1.3 | 0.8 | 10.7
CCc1cc2cccc(C)c2nc1SCC(=O)N1CCN(C(=O)c2ccco2)CC1 | -11.9 | 4.2 | -5.5 | i | . | 1.2 | -2.1 | -3.0
CCCCOC(=O)Nc1ccc(S(=O)(=O)Nn2cnnc2)cc1 | -15.1 | 8.9 | -22.6 | i | -103.9 | -3.0 | 2.9 | -4.7
CCOC(=O)C(CSCc1ccccc1)NC(=O)OC(C)(C)C (stereo unspecified) | 0.9 | 2.0 | 12.6 | i | . | 1.4 | 2.8 | -0.7
Cc1ccccc1CS(=O)(=O)Cc1ccc(C(=O)NC2CCCCC2)o1 | -23.9 | . | -8.6 | i | 7.8 | -1.2 | -2.2 | .
O=S(=O)(N1CCCCC1)n1nnc2ccccc21 | -11.5 | 10.9 | -16.4 | i | . | 0.1 | 4.7 | -9.4
COc1ccc(Nc2cc(Sc3ccc(OC)cc3)ncn2)cc1 | -3.0 | -3.5 | -5.0 | i | 24.9 | -9.4 | -17.2 | -4.7
Cn1nnnc1SCC(=O)N1CCN(S(=O)(=O)c2ccccc2)CC1 | -0.9 | -0.8 | . | i | 0.1 | 1.8 | 6.9 | 2.9
(cont.)
SMILES | CSC inhib | PABP polyA inh | UUG fidelity | Rce1 inhib | Env fusion inh | MT1-MMP act inh | MT1-MMP act inh RFP | eIF4H inh | others
COc1c(OC)c(O)c2c(=O)c(O)c(-c3ccccc3)oc2c1OC | 5.4 | 8.6 | -23.8 | i | . | 1.3 | -3.6 | 14.4
CC1(C)N=C(N)N=C(N)N1c1ccc(OCC(=O)N2CCOCC2)cc1 | . | . | -21.0 | . | 21.6 | 3.2 | -0.7 | .
O=C1c2cccnc2C(=O)N1Cc1ccc(F)cc1 | 4.9 | -9.7 | . | i | -39.2 | 6.4 | 2.1 | -1.7
CCCCc1cc(=O)oc2c(C)c(OCC(=O)N3CCC(C(=O)O)(c4ccccc4)CC3)ccc12 | 5.4 | 10.9 | -15.1 | i | . | 11.2 | -5.8 | 0.5
COc1cccc(C(C#N)N2N=C(C)CC2(C)C)c1O (stereo unspecified) | 0.1 | -4.0 | -20.2 | i | . | -0.2 | 2.6 | 4.0
CCCN1CCC(Oc2cccc(C(=O)NCCc3ccccc3)c2)CC1 | 3.2 | 2.5 | -13.0 | i | -16.5 | -6.1 | -1.0 | 0.0
COc1cc(SC)ccc1C(=O)N(Cc1ccccc1)c1ccccn1 | -15.7 | 7.9 | -5.0 | i | 6.9 | 3.9 | 2.5 | -4.0
CCN1CC(CN(C)Cc2nc(-c3ccco3)oc2C)CC1=O (stereo unspecified) | -7.1 | -1.3 | . | i | -6.9 | -0.5 | 5.5 | 2.5
CCOC(=O)N1CCc2c(sc3nc4n(c(=O)c23)N=C(c2ccc(OC)cc2)CS4)C1 | -8.2 | 2.8 | 1.2 | i | -4.2 | 3.2 | 2.4 | -1.2
O=C1c2ccccc2C(=O)N1CCCCON1C(=O)c2ccccc2C1=O | -11.6 | 5.4 | . | i | -6.9 | 0.0 | 1.1 | 0.4
Cc1nc(NC(=S)NC(=O)c2cccs2)ccc1Br | -5.7 | 15.1 | . | i | -43.3 | -0.2 | 5.1 | 3.3
CCn1c(=O)n(CC(=O)Nc2ccc(F)cc2)c(=O)c2ccccc21 | -13.1 | -5.0 | 13.0 | i | 2.9 | 2.4 | 3.0 | 5.7
